Source: PubChem BioAssay (National Center for Advancing Translational Sciences (NCATS))
TRPML1 blocker: inhibitors of human TRPML1 channel; Q9GZU1; TRPML1-inducible cells, Ca2+ dye fluorescence, FDSS; hits give low values; inhibition of EC80 agonist-evoked calcium signal; activity change, negative = inhibition, % (no concentration beside the values); 390,000 tested, 0.02% active; in the data active means activity change below about -50%; inconclusive means about -30% to -50%; inactive means above about -30%;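 note: stimulus is agonist 54-4 at its EC80 concentration; % is set by controls: 0 for no effect and ±100 for the full control effect; compound concentration not given in the record; the text of the record puts the active cut at -80%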
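TRPML1-DL cells, Tet-induced overnight (~16 h, 37 °C) at 1,500 cells/well, were loaded with Ca8 no-wash dye plus quencher for 45-90 min at room temperature. Compounds were pinned during FDSS kinetic reading; agonist 54-4 at EC80 (4 uM final) then added.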
PINK1 modulator: PINK1 expression modulation. PINK1 immunofluorescence, high-content cytometry, 24 h. Potency, µM (top dose mostly 76.6 µM), for inactives: top-dose activation (PINK1 increase), actives largely listed as activators. 410,000 tested, 0.2% active. AID 624263; active = well fitted activation curve with a large enough effect; inconclusive = small, poorly fitted or top-dose-only effect; inactive = flat fitted curve, though single readings scatter; cell line not stated here;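 note: potency is the fitted concentration of half-maximal effect; % of control where 0% means no effect; nearly all actives have a fitted effect of over 65% in size; a mitochondrial uncoupler was the plate control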
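Fluorescence from anti-PINK1 antibody, together with nuclear and cell stains, was scanned on a laser-scanning cytometer. Before staining, stable-line cells were incubated 24 hours with compounds at 5 concentrations; primary antibody 12 h at 10 degrees C.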
TRPV1 potentiator: potentiators of human vanilloid receptor 1 (TRPV1). Q8NER1. TRPV1-expressing cells, Fluo-8 calcium influx, capsaicin EC20 potentiation; host cell line not named in the record; control for the full effect not named in the record. AID 540277. potentiation, % at 8.33 µM. 320,000 tested, 0.02% active; active means potentiation above 80%; inconclusive means 30% to 80%; inactive means below 30%; note: 0% is about no effect
Target sequence (Q8NER1 whole entry, looked up): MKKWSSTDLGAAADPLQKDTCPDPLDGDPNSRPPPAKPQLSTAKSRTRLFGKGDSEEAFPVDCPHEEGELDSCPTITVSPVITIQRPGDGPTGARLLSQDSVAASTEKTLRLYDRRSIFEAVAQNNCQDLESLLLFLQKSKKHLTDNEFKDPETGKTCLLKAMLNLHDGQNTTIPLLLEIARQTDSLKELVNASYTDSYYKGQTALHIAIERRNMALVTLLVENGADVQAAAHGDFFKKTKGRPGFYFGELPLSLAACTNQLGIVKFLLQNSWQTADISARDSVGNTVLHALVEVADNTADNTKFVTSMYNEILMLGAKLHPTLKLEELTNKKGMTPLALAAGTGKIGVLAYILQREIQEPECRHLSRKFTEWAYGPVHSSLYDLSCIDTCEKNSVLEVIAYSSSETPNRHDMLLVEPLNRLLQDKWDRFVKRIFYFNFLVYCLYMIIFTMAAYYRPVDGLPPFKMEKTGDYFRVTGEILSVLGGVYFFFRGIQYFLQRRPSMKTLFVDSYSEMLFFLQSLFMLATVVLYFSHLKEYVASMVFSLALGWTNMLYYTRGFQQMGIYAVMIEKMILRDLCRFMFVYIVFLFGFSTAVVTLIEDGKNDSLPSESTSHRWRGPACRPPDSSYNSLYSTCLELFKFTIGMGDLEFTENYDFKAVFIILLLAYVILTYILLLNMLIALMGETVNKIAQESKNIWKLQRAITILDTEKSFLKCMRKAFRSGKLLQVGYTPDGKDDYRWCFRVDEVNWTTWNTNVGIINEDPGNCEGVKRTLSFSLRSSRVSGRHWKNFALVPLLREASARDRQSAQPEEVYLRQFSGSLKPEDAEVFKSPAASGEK
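Cells expressing TRPV1 were dye-loaded with Fluo-8 and read kinetically: 10 s baseline, 3 min after compound (agonist portion), then 2 min after EC20 capsaicin (allosteric enhancer portion). Calcium-bound dye fluorescence at 480/520 nm.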
Menin MLL FP FL: inhibitors of human menin-MLL interaction, wild-type MLL peptide; AID 1766; Fluorescence polarization, fluorescein-MLL peptide displacement from menin; 290,000 tested, under 10 active; FP activity change, % at 61.4 µM; inconclusive = falling polarisation curve, or a change in total fluorescence; inactive = total fluorescence flat and polarisation flat or rising; no compound was filed as active; the % refers to the polarisation; negative = inhibition;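 note: % of control where 0% means no effect; inhibitors lower the polarisation; unlabelled MLL peptide was the positive control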
TRPML1 agonist: agonists of human TRPML1 channel; activation, % (no concentration beside the values); Q9GZU1; 410,000 tested, 0.12% active; AID 624414; TRPML1-expressing cells, Ca2+ dye fluorescence, FDSS; host cell line not named in the record; reference of the full effect not given here; in the data active = activation above about 50%; inconclusive = about 30% to 50%; inactive = below about 30%; note: 0% is about no effect; the text of the record puts the active cut at 80%
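Kinetic FDSS Ca2+ read in Tet-induced TRPML1-DL cells (ABD Ca8 dye plus quencher, 45-90 min RT loading): baseline, then compound, then 110 s agonist window; EC80 agonist 54-4 at 4uM final added afterwards for a 110 s antagonist window.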
ClpP mod: qHTS Assay for Activators of ClpP. ATP-dependent Clp protease proteolytic subunit (Bacillus subtilis (strain 168)), P80244. purified B. subtilis ClpP, FRET peptide cleavage, 20 min. Potency, µM (doses to about 57.5 µM), inactives show at the highest dose activity change, negative = active. 340,000 tested, 1.9% active. AID 651965, 2013; active = well fitted falling curve with a large enough effect; inconclusive = small, poorly fitted or top-dose-only effect; inactive = no such curve, though single readings can be large or run the other way; note: potency is the fitted concentration of half-maximal effect; the source files actives as falling curves though it sought activators and does not explain the sign; nearly all actives have a fitted effect of over 65% in size; many hits overshoot -100%
Target sequence (P80244 whole entry, looked up): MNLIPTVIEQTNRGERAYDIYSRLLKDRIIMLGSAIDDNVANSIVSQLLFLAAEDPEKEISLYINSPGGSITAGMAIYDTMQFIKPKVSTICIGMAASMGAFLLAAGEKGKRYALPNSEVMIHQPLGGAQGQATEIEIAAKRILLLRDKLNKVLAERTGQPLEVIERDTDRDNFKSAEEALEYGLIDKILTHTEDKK
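Buffer: 100 mM Tris/HCl pH8, 100 mM KCl, 0.05% low protease BSA, 2.5% glycerol, 0.01% Tween-20. ClpP 10 microg/mL final; 20 min RT; delta FRET normalized to ADEP and DMSO controls.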
Sfp PPTase inh: Sfp phosphopantetheinyl transferase inhibition. Biochemical Sfp PPTase activity, qHTS. Potency, µM, without a hit: max response, negative = inhibition, actives largely listed as inhibitors. 310,000 tested, 3.5% active. AID 1490; active = well fitted inhibition curve with a large enough effect; inconclusive = small, poorly fitted or top-dose-only effect, or another doubt; inactive = no such curve, though single readings can be large or run the other way;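 note: the enzyme is Sfp with the accession as filed and its product quenches rhodamine fluorescence; potency is the fitted concentration of half-maximal effect; 0% = enzyme reaction without inhibitor and -100% = no enzyme wells; top concentration of the series not given in the record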
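Fluorescence-quenching assay: 15 nM Sfp-PPTase preincubated 15 min at room temperature with compound, then 5 uM rhodamine-CoA and 12.5 uM BHQ-2-labelled YbbR peptide added. Fluorescence (ex 525/em 598 nm) read at start and after 30 min; difference gives rate.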
An asterisk follows results filed as active; ? = inconclusive; · = not tested or not shown; & = joins results of further samples; [ ] = remark or other dose.

[1] Cc1cc(C)c2c(=O)cc(C(=O)Nc3sc4c(c3C(=O)NCc3ccco3)CCCC4)oc2c1
[2] CC(Nc1oc(-c2ccco2)nc1C#N)c1ccccc1 (configuration not stated)
[3] COc1cc(OC)c(N(C)C(=O)CSc2c3c(nc4ccc(Cl)cc24)CCCC3)cc1Cl
[4] CCCCn1nc(NC(=O)CC(C)C)c2cc3cc(OC)ccc3nc21
[5] COC(=O)c1ccc(NC(=S)N2CCC(C(N)=O)CC2)cc1
[6] COc1ccccc1NC(=O)Nc1ccc2c(c1)nnn2C
[7] COc1cccc(Cn2nnc(C(=O)Nc3cc(C)ccc3OC)c2N)c1
[8] C=CCN(CC=C)CCOc1cccc(Oc2ccccc2)c1
assay / compound | 1 | 2 | 3 | 4 | 5 | 6 | 7 | 8
TRPML1 agonist | 0.8 | 0.1 | 3.8 | 1.3 | 0.0 | -0.5 | 0.2 | 1.5
Sfp PPTase inh | · | 14% | · | 9% | 32µM* | -2% | 32%[activator] | -24%
PINK1 modulator | 1.8% | 0.5% | 0.4% | 9.1% | -0.8% | 1.3% | 8.2% | 15%
ClpP mod | -4.4% | 7.9µM* | -5.2% | -7.7% | -1.7% | -0.1% | -21% | -2.5%
Menin MLL FP FL | · | 5.6 | · | -6.0 | 3.7 | -1.3 | -1.9 | -5.4
TRPML1 blocker | 2 | 8 | 20 | -13 | 11 | 4 | -10 | 6
TRPV1 potentiator | · | -29 | · | 4 | -2 | 8 | · | 9

Copied from above, entries 1–7
[1] Cc1cc(C)c2c(=O)cc(C(=O)Nc3sc4c(c3C(=O)NCc3ccco3)CCCC4)oc2c1
[2] CC(Nc1oc(-c2ccco2)nc1C#N)c1ccccc1 (configuration not stated)
[3] COc1cc(OC)c(N(C)C(=O)CSc2c3c(nc4ccc(Cl)cc24)CCCC3)cc1Cl
[4] CCCCn1nc(NC(=O)CC(C)C)c2cc3cc(OC)ccc3nc21
[5] COC(=O)c1ccc(NC(=S)N2CCC(C(N)=O)CC2)cc1
[6] COc1ccccc1NC(=O)Nc1ccc2c(c1)nnn2C
[7] COc1cccc(Cn2nnc(C(=O)Nc3cc(C)ccc3OC)c2N)c1
assay / compound | 1 | 2 | 3 | 4 | 5 | 6 | 7
TRPML1 agonist | 0.8 | 0.1 | 3.8 | 1.3 | 0.0 | -0.5 | 0.2
Sfp PPTase inh | · | 14% | · | 9% | 32µM* | -2% | 32%[activator]
PINK1 modulator | 1.8% | 0.5% | 0.4% | 9.1% | -0.8% | 1.3% | 8.2%
ClpP mod | -4.4% | 7.9µM* | -5.2% | -7.7% | -1.7% | -0.1% | -21%
Menin MLL FP FL | · | 5.6 | · | -6.0 | 3.7 | -1.3 | -1.9
TRPML1 blocker | 2 | 8 | 20 | -13 | 11 | 4 | -10
TRPV1 potentiator | · | -29 | · | 4 | -2 | 8 | ·

(next part)
[9] Cc1ccc(SCCNC(=O)c2ccccc2)cc1
[10] O=C(Oc1cccc(N2C(=O)CCC2=O)c1)C1CC(=O)N(c2ccc(F)cc2)C1 (configuration not stated)
[11] Cc1ccccc1-c1cccc([C@@H]2C[C@H]3[C@H](CON3C)CN2C(=O)C(C)(C)C)c1
[12] Cc1ccc(Oc2ncccc2COC(=O)Nc2ccccc2C)cc1
[13] CC1(C)OC(=O)C2(Cc3ccc(Cl)cc3N3CCCC32)C(=O)O1 (configuration not stated)
[14] CCc1nnc2c3ccccc3nc(Nc3ccc(F)cc3C)n12
[15] CSc1ncc(C(=O)Nc2ccccc2F)c(-c2ccccc2)n1
[16] Oc1ccc(Cl)cc1C1=Nc2ccccc2N=C(c2ccccc2)C1
assay / compound | 9 | 10 | 11 | 12 | 13 | 14 | 15 | 16
TRPML1 agonist | -0.9 | 0.5 | -0.4 | 1.6 | -0.4 | 0.3 | 1.8 | 19
Sfp PPTase inh | 6% | 6% | · | -13% | · | · | 4% | ·
PINK1 modulator | -1.0% | 1.2%[38.3 µM] | 1.4% | 1.3% | -0.1% | 4.2% | -2.8% | 2.4%
ClpP mod | -0.2% | 0.0% | -0.2% | · | 0.6% | -0.6% | 4.0% | -1.0%
Menin MLL FP FL | -0.7 | 0.0 | · | 1.6 | · | · | 5.0 | ·
TRPML1 blocker | 21 | 11 | 5 | 42 | · | 40 | -16 | ?
TRPV1 potentiator | -26 | 7 | · | 13 | · | · | -4 | ·

[17] CCCSc1ncc(Cl)c(C(=O)Nc2sc3c(c2C(=O)NCC)CCCC3)n1
[18] NC(=O)c1ccc(NC(=O)CSC(=O)c2ccccc2)cc1
[19] COc1cccc(N2C(=O)CC(N3CCN(C(=O)c4ccco4)CC3)C2=O)c1 (configuration not stated)
[20] CCc1ccc(-n2nc(C)c3c(C(=O)Nc4cccc(C(F)(F)F)c4)cc(C)nc32)cc1
[21] Cc1ccccc1CSCCNC(=O)COc1ccc(Cl)cc1
[22] CC12COC3(C(=O)Nc4ccc5ccccc5c4)CC1CCC32C (configuration not stated)
[23] O=C(NNc1cccc(Cl)n1)Nc1cccc(C(F)(F)F)c1
[24] CN1CCC(N(C)C(=O)COc2ccc(S(=O)(=O)N3CCOCC3)cc2)CC1
assay / compound | 17 | 18 | 19 | 20 | 21 | 22 | 23 | 24
TRPML1 agonist | 1.0&-1.3 | -0.4 | 0.1 | 2.2 | 1.1 | 3.2 | 2.2 | -0.8
Sfp PPTase inh | · | · | -4% | · | -6% | 0% | -1% | 14%
PINK1 modulator | -0.3%&0.3% | -0.4% | -2.5% | 3.8% | -1.3% | 2.6% | 1.3% | 1.7%
ClpP mod | -1.2%&-1.4% | 1.9% | 0.4% | 22µM* | -0.4% | · | · | 0.0%
Menin MLL FP FL | · | · | 5.3 | · | -1.0 | 1.1 | 6.4 | 6.0
TRPML1 blocker | 12 | -3 | -21 | 31 | -10 | 72 | -9 | -9
TRPV1 potentiator | · | · | 4 | · | -3 | -20 | 2 | -2

[25] COCCCNS(=O)(=O)c1ccc2c(c1)OCCO2
[26] Cc1nn(CC(=O)NCc2cccc(F)c2)c(=O)c2cccn12
[27] COC(=O)c1c(NC(=O)c2ccco2)sc2c1CCN(C(C)C)C2
[28] COc1ccc(-c2cc(C(=O)Nc3c(C)n(C)n(-c4ccccc4)c3=O)c3ccccc3n2)cc1OC
[29] CCn1c(C)c(C)c2cc(C(=O)N3CCc4ccccc4C3)ccc21
[30] O=c1c2c3c(sc2nc2n1CCCCC2)CCC3
[31] Cn1nc(Oc2ncc(C(F)(F)F)cc2Cl)cc1C(F)(F)F
[32] Cc1nc2ccc(S(=O)(=O)Nc3ccccc3C)cc2s1
assay / compound | 25 | 26 | 27 | 28 | 29 | 30 | 31 | 32
TRPML1 agonist | 0.2 | 2.9 | 0.3 | -0.8 | 1.3 | -1.0 | 0.3 | 1.1
Sfp PPTase inh | -9% | 2% | 5% | 0% | -18% | -10% | 12% | 10%
PINK1 modulator | -0.9% | -1.0% | -0.5% | 2.4% | 3.0% | -1.2% | 1.8% | 5.5%[38.3 µM]
ClpP mod | -0.9% | -1.3% | -6.9% | -2.7% | -8.9% | -1.4% | · | -1.0%
Menin MLL FP FL | 1.0 | · | 0.6 | 1.8 | 0.6 | -0.5 | 0.3 | 0.9
TRPML1 blocker | -8 | 13 | -3 | -13 | 34 | -18 | 11 | 12
TRPV1 potentiator | -8 | ? | 3 | -1 | -3 | -6 | 2 | -25

[33] Cn1c(SCC(=O)c2ccccc2)nnc1C1CC1
[34] CCOC(=O)C1CCN(C(=O)Cn2nc(CC)n3cccc3c2=O)CC1
[35] COc1ccccc1N1CCN(C(=O)CSc2nc(-c3ccccc3)cc(=O)[nH]2)CC1
[36] O=C1/C(=C/c2cccnc2)Oc2cc(OS(=O)(=O)c3ccc(F)cc3)ccc21
[37] CC(=O)Nc1ccc2nc3c(=O)n(C)c(=O)n(C)c3nc2c1C
[38] CN(Cc1ccccc1)C(=O)c1csc(COCCO)n1
[39] COc1cc(SC)ccc1C(=O)OCC(=O)N1CCN(C(C)=O)CC1
[40] CNC(=S)NNC(=O)c1sccc1OCc1ccc(C)cc1
assay / compound | 33 | 34 | 35 | 36 | 37 | 38 | 39 | 40
TRPML1 agonist | -0.8 | -0.3 | 0.4 | 0.7 | 3.1 | -0.6 | 0.5 | -0.5
Sfp PPTase inh | 56µM* | 19% | 20% | -19% | · | · | · | -5%
PINK1 modulator | -1.8% | -1.0% | -1.2% | 8.4%[38.3 µM] | ? | 1.4% | -0.6% | -1.6%
ClpP mod | 0.0% | -1.1% | -1.2% | -3.2% | -4.6% | 0.5% | -3.6% | 5.6%
Menin MLL FP FL | 3.9 | 3.9 | 0.5 | -2.3 | · | · | · | -0.8
TRPML1 blocker | 19 | 9 | -1 | 10 | 26 | · | -9 | -4
TRPV1 potentiator | 6 | -6 | 13 | -15 | · | · | -6 | ?

[41] CCOC(=O)Cc1nnc(Nc2ccc(C)cc2C)c2ccccc12
[42] CC(C)C12CN3CC(C(C)C)(CN(C1)C3c1ccccc1)C2O (configuration not stated)
[43] O=C(OCC(=O)N1CCCCC1)c1c[nH]c(=O)[nH]c1=O
[44] CCOC(=O)C1(Cc2ccccc2)CCCN(C(=O)c2cnn(CC)c2)C1 (configuration not stated)
[45] COc1ccc2[nH]c3c(c2c1)CCN1C(=O)C(CC(=O)NCCCN(C)C)C[C@H](C(=O)N(C(C)C)C(C)C)[C@@]31C (some centres not stated)
[46] Cc1cc(Br)cn2c(CC(C)(C)C)c(-c3cccc(Cl)c3)nc12
assay / compound | 41 | 42 | 43 | 44 | 45 | 46
TRPML1 agonist | 1.4 | -0.2 | 0.3 | -0.1 | -0.1 | 0.3
Sfp PPTase inh | -7% | 12% | 16% | 17% | · | ·
PINK1 modulator | 1.3% | · | -0.6% | 0.3% | 1.3% | 11%
ClpP mod | -1.3% | -4.3% | -2.3% | 0.8% | -6.5% | -4.0%
Menin MLL FP FL | 0.2 | -2.0 | 5.1 | -0.5 | · | ·
TRPML1 blocker | 10 | 0 | -10 | -4 | -6 | -8
TRPV1 potentiator | 0 | -11 | 0 | ? | · | ·
